Screening data: PubChem, ICCB-Longwood Screening Facility, Harvard Medical School
Bm FixLJ act: increases Burkholderia fixLJ two-component signaling; 29,000 tested, 0.3% active; z-score (no concentration beside the values); B. multivorans fixK-promoter GFP reporter, 18 h; stronger effect = higher value;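 active = replicate mean overnight rise in green fluorescent reporter signal, 3 or more SD over negative controls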;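 note: score is relative to vehicle wells of the plate; 300 nL library stock went into each well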
Active calls of the source: *. These rows are one share of the data, so the mix of outcomes need not match the whole.

nr	structure	Bm FixLJ act
1	COc1cccc(NC(=O)/C(C#N)=C/c2c(C)n(Cc3ccccc3)c3ccccc23)c1	-1.51
2	CCc1nn(CC(=O)Nc2cccc(C(C)=O)c2)c(=O)c2cc3sccc3n12	-0.12
3	COc1ccc(-c2cc(C(=O)Oc3ccc(Br)cc3)c3ccccc3n2)cc1	0.56
4	CN(C)c1ncc(CN2CC3CCC(C2)N(Cc2cscn2)C3=O)cn1 (stereo unspecified)	-0.21
5	CCNC(=O)C1CCN(C(=O)Nc2cccc(N3CCOC3=O)c2)C1 (stereo unspecified)	-0.87
6	Oc1cccc(-c2ccc3c(c2)OCC(N2CCCC2)C3O)c1 (stereo unspecified)	0.83
7	Cc1cnc(-n2cnnc2)c(-c2ccccc2C(=O)N(C(C)C)C(C)C)c1	-0.99
8	CCN(C(=O)c1cc2c(=O)oc3ccccc3c2s1)c1cccc(C(F)(F)F)c1	2.57
9	O=C(Nc1ccc2oc(-c3ccc4ccccc4c3)nc2c1)c1cccc(Cl)c1Cl	0.98
10	COc1ccc(NC(=O)CC2C(=O)N(c3cccc(C)c3)C(=O)N2C2CCCCC2)cc1 (stereo unspecified)	-1.98
11	CCCSc1ncc(Cl)c(C(=O)Nc2ccc(CC)cc2)n1	1.15
12	CN(C)c1ncc(C=CC(=O)NCC2(c3ccc(F)cc3)CCCC2)cn1	0.3
13	Cc1ccccc1N1CC(C(=O)Nc2ccc(Br)cc2)CC1=O (stereo unspecified)	-0.52
14	COc1cccc(-n2c(-c3ccccc3F)nc3c(cnn3-c3ccc(C)cc3)c2=O)c1	-0.86
15	COc1ccc(NC(=O)NC(C)c2c(-n3cccc3)sc(C)c2C)cc1OC (stereo unspecified)	-0.19
16	CC1CCCN(Cc2nc3c(c(=O)n(C)c(=O)n3C)n2Cc2ccc(Cl)cc2Cl)C1 (stereo unspecified)	-1.01
17	O=C(c1cnccn1)N1CCC2(CC1)OCCc1ccsc12	-1
18	Cn1nccc1CCC(=O)N1CCCN(C(=O)c2ccoc2)CC1	1.27
19	Cc1nc2n(c(=O)c1CCN1CCC(c3noc4cc(F)ccc34)CC1)CCCC2	-2.07
20	Cc1ccc(C(C)C)c(OCCSc2nc3ccccc3n2CC(O)CO)c1 (stereo unspecified)	-2.14
21	COC(=O)CCc1ccc(OCC(O)CNC(C)C)cc1 (stereo unspecified)	0.55
22	COc1ccccc1-c1c(C(F)(F)F)oc2c(CN3CCCCC3C)c(O)ccc2c1=O (stereo unspecified)	-1.25
23	Cc1c(C(=O)N2CCCC(C(=O)c3ccccn3)C2)cnn1-c1ccccn1 (stereo unspecified)	-2.13
24	COc1ccc(C2CC(=O)N3CN(C4CCCCC4)CSC3=C2C#N)c(OC)c1 (stereo unspecified)	-0.74
25	Cc1ccc(-c2nn3c(-c4ccccc4C)nnc3c3ccccc23)cc1	-2.1
26	CCCCCn1c(=O)[nH]c2cc(C(=O)N3CCN(c4cccc(C(F)(F)F)c4)CC3)ccc2c1=O	0.24
27	CC(C)[N+]1(C)[C@@H]2CC[C@H]1CC(OC(=O)C(CO)c1ccccc1)C2 (stereo partly specified)	-0.7
28	CCC(=O)N1CCc2cc(Br)cc(S(=O)(=O)CCC(=O)N3CCN(c4ccccc4OC)CC3)c21	-0.97
29	CCn1c(=O)c2cc(C(=O)NCCCN3CCC(C)CC3)sc2c2ccccc21	-2.42
30	Clc1cccc(N2CCN(c3c4c(nc5nncn35)CCC4)CC2)c1	0.16
31	CCC(=O)N1CCc2cc(Br)cc(S(=O)(=O)CCC(=O)Nc3cccc(CC)c3)c21	-0.97
32	CCC(=O)N1CCc2cc(S(=O)(=O)CCC(=O)NCc3ccc(OC)cc3)ccc21	-1.02
33	CCOc1ccc(CNC(=O)C2Cc3cc(S(=O)(=O)N4CCCCCC4)ccc3N2C(C)=O)cc1 (stereo unspecified)	-0.61
34	CCN(CC)S(=O)(=O)c1ccc2c(c1)N(CC(=O)Nc1c(C)cccc1C)C(=O)C1CCCN21 (stereo unspecified)	-0.78
35	Cc1ccccc1C1(O)CCN(C(=O)c2ccccc2-n2cnnc2)C1 (stereo unspecified)	-1.12
36	O=C(O)CCC(=O)Nc1ccc(S(=O)(=O)Nc2nccs2)cc1	-1.15
37	O=C1CCCCN1CCCC(=O)N1CC(O)C(Cc2ccnc3ccccc23)C1 (stereo unspecified)	-1.63
38	COC(=O)c1ccccc1NC(=O)Cn1nnc2sc(-c3ccccc3)cc2c1=O	0.04
39	Cc1ccc(-c2cc(NC(=O)c3cccc(C)c3)on2)cc1	-1.35
40	CCOc1ccc(C(=O)N2CC(=O)Nc3ccc(C)cc3C2c2ccc(F)cc2)cc1OCC (stereo unspecified)	0.33
41	Cc1ccc2c(c1)cc1c(=O)n(CC(=O)N(C)c3ccccc3)nc(C)n12	-0.81
42	CCOC(=O)c1ccc(NC(=O)CCc2c(C)nc3nc[nH]n3c2=O)cc1	-1.56
43	COc1ccc(-c2nc3ccccc3s2)cc1NC(=O)c1ccccc1OC	-0.56
44	Cc1nc(SCCOc2ccc(Cl)cc2)[nH]c(=O)c1Cc1ccccc1	-1.27
45	CCn1c(=O)c2cc(C(=O)NCCCN(C)Cc3ccccc3)sc2c2ccccc21	-1.29
46	COc1ccc2c(c1)-c1nc(NC(=O)c3ccc(OC)c(Br)c3)sc1CC2	0.23
47	CN(C)CC(O)c1cc2n(n1)CCCN(C(=O)c1cc[nH]c1)C2 (stereo unspecified)	-0.14
48	CCSc1nc2c(c(=O)[nH]c(=O)n2C)n1CC(O)COc1ccc(Cl)cc1 (stereo unspecified)	1.22
49	O=C(NC1COCC1Cc1ccncc1)c1ccc(C(=O)N2CCOCC2)cc1 (stereo unspecified)	-0.55
50	CNC(=O)C1CCC(CNc2cc(C3CC(N)C3)ncn2)CC1 (stereo unspecified)	0.19

Another view of some results above:
(5) CCNC(=O)C1CCN(C(=O)Nc2cccc(N3CCOC3=O)c2)C1 (stereo unspecified)
  Bm FixLJ act: -0.87

(6) Oc1cccc(-c2ccc3c(c2)OCC(N2CCCC2)C3O)c1 (stereo unspecified)
  Bm FixLJ act: 0.83

(7) Cc1cnc(-n2cnnc2)c(-c2ccccc2C(=O)N(C(C)C)C(C)C)c1
  Bm FixLJ act: -0.99

(8) CCN(C(=O)c1cc2c(=O)oc3ccccc3c2s1)c1cccc(C(F)(F)F)c1
  Bm FixLJ act: 2.57

Next section
nr	structure	Bm FixLJ act
51	Cc1cc(C)c(OCCOCCn2c(-c3ccc(Cl)cc3)nc3ccccc3c2=O)c(C)c1	-0.2
52	COc1cc(-n2cnnn2)ccc1NC(=O)CN1CC(c2ccccc2)CC1=O (stereo unspecified)	-0.24
53	COc1cc(NS(=O)(=O)c2ccc(NC(=O)COc3ccc(Cl)cc3Cl)cc2)nc(OC)n1	-0.36
54	CCn1cc(C(=O)N2CCN(c3ccccc3F)CC2)c(=O)c2cc(S(=O)(=O)N(C)C)ccc21	1.49
55	COC(=O)C1=C(C)N(C(C)C)C(=O)C1(NC(=O)c1ccccc1OC)C(F)(F)F (stereo unspecified)	0.48
56	CCc1ccc(-c2cn(Cc3nn(CC)c4ccccc34)nn2)nc1	-1
57	Cc1ccc(NC(=O)Cn2c(=O)n(CCCS(=O)(=O)C3CCCCC3)c(=O)c3ccccc32)cc1F	-1.05
58	CN(Cc1nnc(-c2ccccc2)o1)C(=O)c1ccccc1-n1cnnc1	-0.23
59	CCOc1ccc(NC(=O)CCS(=O)(=O)c2cccc3nonc23)cc1	-1.4
60	CC(CNC(=O)c1ccc2nc(-c3ccccc3)cn2c1)Oc1cccnc1 (stereo unspecified)	-0.44
61	CCOC(=O)[C@@]12CCC(N3CCOCC3)C[C@H]1CCN(C(=O)Cc1ccc(F)cc1)C2 (stereo partly specified)	0.88
62	CN(Cc1nncn1C)c1ccc(C(=O)N2CCC(Cn3cccn3)CC2)cn1	0.06
63	CCCn1cnnc1CN(C)C(=O)Nc1ccc(OCc2cccs2)cc1	-1.3
64	COc1ccccc1CNc1nc2c(S(=O)(=O)c3ccc(C)c(C)c3)nnn2c2ccc(Cl)cc12	0.63
65	O=C(c1ccc2c(c1)N(Cc1ccc(Cl)cc1)C(=O)c1ccccc1S2(=O)=O)N1CCN(c2ccccn2)CC1	-0.26
66	C=C[C@H]1CN2CC[C@H]1C[C@@H]2[C@@H](OC(=O)OCC)c1ccnc2ccc(OC)cc12	-0.64
67	Cc1ccccc1Nc1c(-c2ccc(N3CCOCC3)cc2)nc2ccccn12	-0.46
68	Cc1ccc2c(CC(=O)Nc3c(C(=O)c4ccc(F)cc4)oc4ccccc34)coc2c1C	0.98
69	CCOc1ccc(CCNC(=O)c2cc3c(=O)n(C)c4ccccc4c3n2C)cc1OCC	-0.86
70	CCOC(=O)c1cnc2cc(C(F)(F)F)ccc2c1N1CCN(c2ccc(F)cc2)CC1	1.69
71	COc1ccc(OC)c(CNC(=O)c2cc3c(-c4ccc(OC)c(OC)c4)nn(C)c3s2)c1	-0.25
72	CCN(CC)c1ccc(NC(=O)c2sc3nc4c(cc3c2N)CN(C)CC4)cc1	1.48
73	O=C(CSc1cn(CCNC(=O)c2c(F)cccc2F)c2ccccc12)Nc1ccc2c(c1)OCCO2	0.29
74	C[N+](C)(C)[C@@H](Cc1c[nH]c(=S)[nH]1)C(=O)[O-]	-1.78
75	Cc1nccn1CC1(CNc2ccc(C(=O)N(C)C)cn2)CC1	1.35
76	CC(C)C(NC(=O)Cc1ccc(S(C)(=O)=O)cc1)c1nccn1C (stereo unspecified)	0.29
77	O=C(CC1=CSC2=NCCN12)NCCCOc1cccnc1	-0.92
78	Cc1cccc(NC(=O)Nc2ccc(C)c(C)c2)n1	0.01
79	COc1ccc(-c2nc(CSCC(=O)N3CCN(c4ccccc4F)CC3)c(C)o2)cc1	-0.18
80	CC1=C(C(=O)OCc2ccccc2)C(c2cccc(Cl)c2Cl)CC(=O)N1 (stereo unspecified)	-0.5
81	O=C(c1cccc2c1NCCC2)N1CCC(C(O)c2cccs2)CC1 (stereo unspecified)	-4.15
82	COc1ccc(NC(=O)C2CCC(CNS(=O)(=O)c3cccc4nsnc34)CC2)cc1OC (stereo unspecified)	-1.05
83	CCCNC(=O)CN1C(=O)COc2ccc(S(=O)(=O)N3CCCC3)cc21	-0.18
84	CCOC(=O)C1=C(CS(=O)(=O)c2ccc(F)c(C)c2)NC(=O)NC1c1ccc(F)c(F)c1 (stereo unspecified)	1.18
85	CCCc1nc(C)c(CNC(=O)Cc2c(C)noc2C)s1	0.15
86	CCn1cc(-c2ccc(C(=O)N3CCc4c(c(CO)nn4C)C3)cc2)cn1	-1.88
87	Cc1ccc2nc(Nc3ccc(C)c(F)c3)c3nncn3c2c1	-0.05
88	Cc1nc(-c2cccc(C(=O)N(C)C(CN(C)C)c3ccccc3)c2)nn1C (stereo unspecified)	-0.8
89	C#CCOc1c(Br)cc(C2C(C(=O)OC)=C(C)NC3=C2C(=O)c2ccccc23)cc1OCC (stereo unspecified)	-0.86
90	Cc1nc2nc(SCC(=O)NCCc3ccc(Cl)cc3)nn2c(C)c1Cc1ccccc1	-1.5
91	Cc1cc(-c2cccc(C(=O)N3CCN(CCO)CC3)c2)c(=O)[nH]c1C	-1
92	CCn1cc2nc(SCC(=O)Nc3ccc(OC)c(Cl)c3)n(Cc3ccc(OC)cc3)c(=O)c2n1	1.88
93	COc1cccc(NC(=O)CSc2nc(O)c(C/C=C/c3ccccc3)c(=O)[nH]2)c1	0.17
94	CC(C)CC(=O)N1CCN(C(=O)NCC2(c3ccc(Cl)cc3)CC2)CC1	0.86
95	CCCSCC(=O)N1CCC2(CC1)c1nc[nH]c1CCN2C(=O)CC	0.32
96	O=C(COc1ccc2oc3c(c2c1)CCCC3)Nc1cccc(Br)c1	0.74
97	COC(=O)c1c(NC(=O)COc2ccc(OC)cc2)sc2c1CCC(C)C2 (stereo unspecified)	-0.79
98	COc1ccccc1CN(C(=O)NCCCn1ccnc1)C1CCCC1	-1.45
99	COc1ccccc1OCC(=O)Nc1cc(-c2ccc(C)cc2)no1	-1.37
100	CS(=O)(=O)c1ccc(C(O)[C@H](CF)NC(=O)C(Cl)Cl)cc1 (stereo partly specified)	-5.85

(further entries)
nr	structure	Bm FixLJ act
101	Cc1ccc(NC(=O)Cn2c(=O)n(CCC(=O)NCc3ccccc3Cl)c(=O)c3ccccc32)c(C)c1	-0.98
102	CCCCSCCCNC(=O)c1cn(CC)c2ccc(S(=O)(=O)N(C)C3CCCCC3)cc2c1=O	0.02
103	O=C(NCCc1ccc(Cl)cc1)c1ccc2c(c1)N(Cc1ccc(Cl)cc1)C(=O)CS2	0.31
104	CCCCCN(C)CCC(O)(P(=O)(O)O)P(=O)(O)O	0.25
105	O=C(COC(=O)c1cc(-c2cccs2)nc2ccccc12)c1ccc(Br)cc1	1.85
106	Cc1cc(C(=O)N2CCC(c3nnc(Cn4ccnc4)n3C)CC2)n[nH]1	-1.2
107	O=C(CC1NC(=O)NC1=O)NCC1(c2ccc(F)cc2)CCCC1 (stereo unspecified)	1.19
108	COc1ccc(N2CCN(C(=O)c3ccc(OC)cc3O)C(C)C2=O)cc1 (stereo unspecified)	-1.09
109	COc1ccc(-c2ccc3c(N)c(C(=O)NCc4ccc(Cl)cc4)sc3n2)cc1	-0.97
110	COc1ccc(OCC(=O)N2CCN(C(=O)c3cccc(OC)c3OC)CC2)cc1	-3.64

Of the compounds above, these have two or more sulfur atoms.
nr	structure	Bm FixLJ act
36	O=C(O)CCC(=O)Nc1ccc(S(=O)(=O)Nc2nccs2)cc1	-1.15
82	COc1ccc(NC(=O)C2CCC(CNS(=O)(=O)c3cccc4nsnc34)CC2)cc1OC (stereo unspecified)	-1.05
102	CCCCSCCCNC(=O)c1cn(CC)c2ccc(S(=O)(=O)N(C)C3CCCCC3)cc2c1=O	0.02
